Bioassay records deposited in PubChem BioAssay by National Center for Advancing Translational Sciences (NCATS).
Six1-Eya2 blk: qHTS Assay for Inhibitors of the Six1/Eya2 Interaction; Homeobox protein SIX1 (Homo sapiens) + Protein phosphatase EYA2 (Homo sapiens), …; AlphaScreen GST-Six1/His-Eya2 binding, biochemical; active compounds read low; control for the full effect not named in the record; activity change, % (concentration not given with the values); 360,000 tested, 0.56% active; in the data active = activity change below about -65%; inconclusive = about -30% to -65%; inactive = above about -30%; note: % is set by controls: 0 for no effect and ±100 for the full control effect
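GST-Six1 + His-Eya2 (5X stock: 250/500 nM); Tris pH 8.0, 300 mM NaCl, 0.05% BSA, 0.02% Tween 20; GSH donor/Ni acceptor beads; 1 h 37 °C dark; AlphaScreen readout.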
D2 ag: Beta-Arrestin HTS for Positive Allosteric Modulators of the Human D2 Dopamine Receptor: Agonists. D(2) dopamine receptor (Homo sapiens), P14416. DiscoveRx PathHunter D2 beta-arrestin, luminescence, 90 min; 100% = 57 uM dopamine signal. activation, % (no concentration beside the values). 360,000 tested, 0.084% active. AID 624465, 2012; in the data active = activation above about 40%; inconclusive = about 15% to 40%; inactive = below about 15%; note: compound concentration not given in the record; the text of the record calls up to 30% inactive
Target sequence (P14416 whole entry, looked up): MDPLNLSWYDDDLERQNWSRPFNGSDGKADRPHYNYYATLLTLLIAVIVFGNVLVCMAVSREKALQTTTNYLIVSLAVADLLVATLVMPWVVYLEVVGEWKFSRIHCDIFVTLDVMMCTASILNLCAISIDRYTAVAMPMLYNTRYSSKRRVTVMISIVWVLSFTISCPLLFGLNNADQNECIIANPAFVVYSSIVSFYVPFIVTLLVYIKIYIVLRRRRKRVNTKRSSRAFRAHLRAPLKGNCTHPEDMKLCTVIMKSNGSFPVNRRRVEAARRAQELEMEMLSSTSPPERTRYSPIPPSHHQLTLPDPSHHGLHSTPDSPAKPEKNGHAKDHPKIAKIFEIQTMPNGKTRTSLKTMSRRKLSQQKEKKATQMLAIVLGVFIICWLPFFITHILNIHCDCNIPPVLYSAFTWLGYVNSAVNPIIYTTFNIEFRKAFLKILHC
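DiscoveRx PathHunter D2 beta-arrestin cells (2,100/well) attached overnight, then compound-stimulated 90 min at 37 C in HBSS/10 mM HEPES/0.1% Tween-20 buffer; beta-galactosidase complementation read by luminescence after 1 h at ambient temperature. Dopamine 57 uM final (EC100) as control.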
gsp agonist: qHTS for Agonist of gsp, the Etiologic Mutation Responsible for Fibrous Dysplasia/McCune-Albright Syndrome: qHTS | gsp mutant cells, cAMP HTRF, 30 min; control for the full effect not named in the record | Potency, µM (top dose mostly 76.9 µM), inactives show at the top dose activation (cAMP increase), hits mostly activators | AID 624287, 2012 | 340,000 tested, 0.13% active; active = well fitted activation curve with a large enough effect; inconclusive = small, poorly fitted or top-dose-only effect, or another doubt; inactive = no such curve, though single readings can be large or run the other way; cell line not stated here;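 note: phosphodiesterase inhibitor Ro 20-1724 added with compounds to block cAMP breakdown; potency is the fitted concentration of half-maximal effect; nearly all actives have a fitted effect of over 60% in size; about a fifth of the inactives were tested at one dose only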
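Cells stably selected in G418 were plated at 2000/well, grown 16-24 hr, then given compounds in DMSO with the PDE inhibitor […] (300 uM solution added) for 30 min at 37C; cAMP was read by HTRF.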
CtBP-E1A blk: qHTS Assay for Inhibitors of the CtBP/E1A Interaction. AlphaScreen GST-E1A/His-CtBP binding, 1536-well; active compounds read low; control for the full effect not named in the record. activity change, % (concentration not given with the values). 340,000 tested, 0.49% active; in the data active means activity change below about -65%; inconclusive means about -30% to -65%; inactive means above about -30%; note: % is set by controls: 0 for no effect and ±100 for the full control effect
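Steps: dispense buffer (Tris pH 8.0, NaCl 300 mM, TCEP 1 mM, BSA, Tween 20); add 5X protein mix (GST-E1A, His-CtBP, 125 nM each); pin 23 nL compound; 2 h at 37 °C, dark; add 5X beads (50 ug/mL); 1 h; read.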
D2 potentiator: Beta-Arrestin HTS for Positive Allosteric Modulators of the Human D2 Dopamine Receptor: Potentiators; D(2) dopamine receptor (Homo sapiens), P14416; DiscoveRx D2 beta-arrestin cells, luminescence, 90 min; 100% = 57 uM dopamine signal; potentiation, % (concentration not given with the values); 360,000 tested, 0.23% active; AID 624464, 2012; active = potentiation of 50% or more; inconclusive = 30% to 50%; inactive = 30% or less;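 note: compound concentration not given in the record; tested on top of an EC20 dose of dopamine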
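PathHunter D2 cells, attached overnight at 37 deg C, received compound in DMSO plus dopamine at EC20 (50 nM final) for 90 min at 37 deg C. Beta-arrestin recruitment was read as luminescence after 1 h with detection reagent at ambient temperature.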
gsp antagonist: qHTS for Antagonists of gsp, the Etiologic Mutation Responsible for Fibrous Dysplasia/McCune-Albright Syndrome: qHTS; gsp-mutant cells, cAMP HTRF, 30 min; control for the full effect not named in the record; Potency, µM (doses to about 76.9 µM), without a hit: at the highest dose activity change, negative = inhibition, most hits filed as inhibitors; 340,000 tested, 0.4% active; AID 624288, 2012; active = falling curve of any shape with a large fitted effect; inconclusive = falling curve, mostly with a smaller effect; inactive = flat or rising curve; cell line not stated here;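 note: intracellular cAMP measured with PDE inhibitor Ro 20-1724 present during compound exposure; potency is the fitted concentration of half-maximal effect; % is set by controls: 0 for no effect and ±100 for the full control effect; nearly all actives have a fitted effect of over 65% in size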
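Cells, 2000/well, grown 16–24 h in DMEM 10% FBS with 0.5 mg/ml G418, then compounds plus […] (300 uM addition stock), 30 min at 37C. cAMP read by HTRF (cAMP-d2 and anti-cAMP antibody-K in lysis buffer) after 30 min RT.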
The depositor's hits bear a star; ? = inconclusive; · = no result given; [ ] = another dose, or the depositor's remark.

The line under a structure holds: Six1-Eya2 blk | D2 ag | gsp agonist | CtBP-E1A blk | D2 potentiator | gsp antagonist
> CCOC1=C2CN(S(=O)(=O)c3ccc(C)cc3)[C@H](c3ccccc3)C[C@H]2[C@H]2C(=O)N(c3ccccc3)C(=O)[C@H]2C1
    -4 | 2.6 | · | 6 | -3 | ·
> O=[N+]([O-])c1ccc2oc(C3CCCCC3)nc2c1
    0 | -4.1 | -5%[15.4 µM] | 3 | -19 | -10%
> CCn1c(SCc2nc3ccccc3c(=O)[nH]2)nc2ccccc21
    -15 | -1.4 | 6%[15.4 µM] | 0 | 7 | -4%
> CCCCn1c(N)c(N(CCC(C)C)C(=O)c2ccc3ccccc3c2)c(=O)[nH]c1=O
    -1 | -4.3 | 11% | · | -4 | 13%
> CCOc1ccc(N=C2C(=O)N(CN3CCOCC3)c3ccccc32)cc1
    7 | -16 | 20% | 4 | -47 | -2%
> COc1cccc(-c2cc(C(=O)N3CCc4ccccc4C3)no2)c1
    0 | 0.2 | 21% | 3 | -9 | -13%
> Cc1cc(OC(=O)Nc2ccccc2)ccc1Cl
    4 | -1.3 | -2% | 0 | -4 | ·
> O=C(C1=C(O)C(=O)N(CCN2CCOCC2)C1c1ccco1)c1cc2ccccc2o1 (configuration not stated)
    9 | -10.0 | 55% | 8 | -6 | 19%
> C=CCN(CC=C)C(=S)NC(=O)/C=C/c1ccc(OC)cc1
    -3 | -1.9 | -16% | -13 | -7 | -12%
> COC(=O)C1CCN(C(=O)NC2CC(=O)N(c3ccc4c(c3)OCCO4)C2)CC1 (configuration not stated)
    15 | -1.3 | 9% | 3 | -13 | 7%

Sorted by number of heavy atoms (low to high): some entries from above
The line under a structure holds: Six1-Eya2 blk | D2 ag | gsp agonist | CtBP-E1A blk | D2 potentiator | gsp antagonist
> C=CCN(CC=C)C(=S)NC(=O)/C=C/c1ccc(OC)cc1
    -3 | -1.9 | -16% | -13 | -7 | -12%
> COc1cccc(-c2cc(C(=O)N3CCc4ccccc4C3)no2)c1
    0 | 0.2 | 21% | 3 | -9 | -13%
> COC(=O)C1CCN(C(=O)NC2CC(=O)N(c3ccc4c(c3)OCCO4)C2)CC1 (configuration not stated)
    15 | -1.3 | 9% | 3 | -13 | 7%

More structures.
The line under a structure holds: Six1-Eya2 blk | D2 ag | gsp agonist | CtBP-E1A blk | D2 potentiator | gsp antagonist
> CCCCNC1=CC(=O)C(=O)c2ccccc21
    -7 | 51* | -3% | · | -8 | -11%
> Cc1ccc(S(=O)(=O)N2CC(C)C(=O)CC2C)cc1 (configuration not stated)
    -7 | -2.7 | 28% | -1 | -5 | 11%
> Cc1cnc(C(=O)OCc2ccc(C#N)cc2)cn1
    1 | 2.0 | 2%[15.4 µM] | 3 | 2 | 8%
> CCc1cc(C(=O)OC)c(N2C(=O)C3C4C=CC(C4)C3C2=O)s1 (configuration not stated)
    3 | -1.3 | 1% | 2 | -7 | -1%
> CCOC(=O)c1c(C)n(C)c2ccc(O)c(CN3CCCCC3)c12
    -10 | -3.4 | -20% | -1 | -29 | -8%[15.4 µM]
> COc1ccc(C(CNC(=O)c2cccc(S(=O)(=O)N3CCc4ccccc43)c2)N(C)C)cc1 (configuration not stated)
    -10 | -4.4 | -4%[15.4 µM] | -8 | -36 | -10%
> Cc1ccc(OCCn2ncc3ccccc3c2=O)c(C)c1
    14 | 0.4 | 23% | 7 | -1 | -7%
> NC(=O)c1c(NC(=O)Cn2cnc([N+](=O)[O-])n2)sc2c1CCCC2
    0 | 4.9 | -21% | · | -10 | 9%
> CCCCN(C(=O)c1ccc(Br)o1)C1CCS(=O)(=O)C1 (configuration not stated)
    5 | 5.2 | 0%[15.4 µM] | -3 | 5 | -2%
> COc1cccc(CN(C)CCCn2ccc(NC(=O)OCc3ccccc3)nc2=O)c1
    -11 | -1.5 | · | -9 | -5 | 3%

4 entries from above in another layout.
Cc1cnc(C(=O)OCc2ccc(C#N)cc2)cn1
- Six1-Eya2 blk = 1
- D2 ag = 2.0
- gsp agonist = 2%[15.4 µM]
- CtBP-E1A blk = 3
- D2 potentiator = 2
- gsp antagonist = 8%

Cc1ccc(OCCn2ncc3ccccc3c2=O)c(C)c1
- Six1-Eya2 blk = 14
- D2 ag = 0.4
- gsp agonist = 23%
- CtBP-E1A blk = 7
- D2 potentiator = -1
- gsp antagonist = -7%

COc1ccc(C(CNC(=O)c2cccc(S(=O)(=O)N3CCc4ccccc43)c2)N(C)C)cc1 (configuration not stated)
- Six1-Eya2 blk = -10
- D2 ag = -4.4
- gsp agonist = -4%[15.4 µM]
- CtBP-E1A blk = -8
- D2 potentiator = -36
- gsp antagonist = -10%

NC(=O)c1c(NC(=O)Cn2cnc([N+](=O)[O-])n2)sc2c1CCCC2
- Six1-Eya2 blk = 0
- D2 ag = 4.9
- gsp agonist = -21%
- CtBP-E1A blk = ·
- D2 potentiator = -10
- gsp antagonist = 9%

The list goes on:
The line under a structure holds: Six1-Eya2 blk | D2 ag | gsp agonist | CtBP-E1A blk | D2 potentiator | gsp antagonist
> CCOC(=O)C1=C(C)Nc2ccccc2N=C1NC(=O)C(c1ccccc1)c1ccccc1
    2 | -1.0 | 21%[15.4 µM] | 7 | -7 | -45%
> O=C(NCc1ccccc1F)C12CC3CC(CC(C3)C1)C2
    9 | -7.6 | -11%[15.4 µM] | -22 | -5 | -8%
> Nc1cccc(-c2cnc3ccccc3n2)c1
    -8 | -2.4 | 19% | · | 4 | 5%
> COCCn1c(=O)c2c(nc3n2CCCN3CCc2ccc(OC)c(OC)c2)n(C)c1=O
    -4 | 3.1 | 22% | -7 | 3 | -6%
> COc1ccc(CCNC(=O)CCSCc2ccccc2F)cc1OC
    4 | 3.3 | 8% | · | -7 | 0%
> O=C(CCc1ccccc1)NC1CCSC1=O (configuration not stated)
    0 | -3.1 | 5% | 5 | -6 | 7%
> O=C1NC(=Nc2ccccc2)SC1Cc1cccc(Cl)c1Cl (configuration not stated)
    2 | -2.2 | 1% | 5 | -16 | -13%
> O=C(c1ccc(F)cc1)N1CCN(c2cc(=O)[nH]nc2-c2ccccc2)CC1
    7 | -2.0 | -5% | 0 | -21 | -13%
> CC1(C)C2(C#N)C(N)=NC3(OCCO3)C12C#N (configuration not stated)
    25 | -1.1 | 22% | 3 | -4 | 6%
> COc1ccc(/C=C/C(=O)NC(C)CCc2ccccc2)cc1OC (configuration not stated)
    -13 | -0.2 | 1% | -13 | 0 | -2%
> COc1ccc(/C=C/C(=O)OC(C)CN2CCCCC2)cc1 (configuration not stated)
    -2 | -1.4 | ? | -2 | -5 | -12%
> COc1ccc(NC(=O)COC(=O)C2CC(=O)N(CCc3ccc(OC)c(OC)c3)C2)cc1Cl (configuration not stated)
    -1 | -4.0 | ? | 5 | -2 | -14%
> Nc1ccc(C(=O)N/N=C/c2c[nH]c3ccccc23)cc1
    -3 | -6.4 | -3% | · | -11 | -12%
> COc1cc(NC(=O)COc2ccccc2)ccc1NC(=O)c1ccco1
    0 | 7.0 | 6% | -9 | -3 | -33%
> c1ccc(OCCCc2nc(-c3ccncc3)no2)cc1
    11 | 0.5 | 11% | 7 | -8 | 1%
> CC12CCC(=O)CC1CCC1C2CCC2(C)C1CCC2(O)C(=O)CO (configuration not stated)
    8 | -0.9 | 11%[15.4 µM] | -3 | -22 | -11%

This is a random part of the collection. Share with any hit: about 1.4%.
